HIV Env fusion: blocks HIV Env-driven cell-cell fusion | 360,000 compounds, 1.1% hits | HeLa-JRFL Env/CEM21 cell fusion, luciferase | AID 651610 | inhibition, % at 12.3 µM;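 active = mean replicate inhibition score of at least 50 and every replicate individually at or above 50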;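 note: 0% = plate neutral controls and 100% = maraviroc near 300 nM; one replicate is shown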
UUG fidelity: yeast start codon fidelity modulation | activity score, % at 18.7 µM | 350,000 compounds, 0.13% hits | AID 602363 | S. cerevisiae UUG-firefly luciferase reporter, luminescence/redox ratio;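 active = replicate mean at a twofold rise or more, about +100% in these data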;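 note: firefly luciferase made from a UUG start codon reports start codon fidelity; reporter light over untreated wells divided by growth signal over untreated wells; some hits fall short of that in this replicate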
CSC inhib: cancer stem cell inhibition; inhibition, % at 7.5 µM; 300,000 compounds, 1.1% hits; cancer stem cell-like cells viability, luminescence; AID 2717;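 active = mean at 75% or more and at least half the replicates too; tested in HMLE shEcad cells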;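 note: 0% = median of negative and 100% = median of positive control wells; the first replicate is given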
MT1-MMP act inh: blocks activation of human MT1-MMP; P50281; HT1080 RFP-PRO-GFP cells, GFP/RFP ratio fluorescence, overnight; percent of plate control window, DMSO zero; GFP/RFP ratio change, % at 20 µM; 360,000 compounds, 0.061% hits;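 active = GFP/RFP ratio change of at least 30% with cell ATP level not reduced by more than half and red fluorescence within 50% of control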; note: strong numbers were not always called active
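Assay system: HT1080 RFP-PRO-GFP cells | Dosing: 20 µM single dose, 1% DMSO | Incubation: Cells overnight before dosing, compound overnight, 37 °C, 5% CO2 | Evaluation: GFP/RFP fluorescence ratio | Control set: DMSO-only wells and HT1080 RFP-L50D-GFP cell wells as references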
eIF4H inh: inhibitors of RNA binding by human eIF4H. eIF4H fluorescence polarization binding assay. 290,000 compounds, 0.94% hits. inhibition, % at 35 µM. Q15056;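 active = 50% or more with normal probe brightness, or confirmed in later tests; about a fifth of its hits are not listed in these tables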;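 note: calls also rest on retests at 20 µM and on dose response follow-up; 0% = protein and probe with vehicle and 100% = probe without protein; strong numbers were not always called active; many hits fall short of the cut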
Rce1 inh: inhibitors of yeast Ras-converting enzyme. Q03530. yeast membranes, quenched prenylated peptide cleavage fluorescence. calls only. 290,000 compounds, 0.27% hits. AID 2563;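 active = fall in fluorescence gain of 50% or more versus controls, with final raw signal at or below 3038400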;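 note: plate controls were neutral control wells for no effect and wells lacking membranes for full effect; tested at 10 µM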
Target sequence (Q03530 whole entry, looked up): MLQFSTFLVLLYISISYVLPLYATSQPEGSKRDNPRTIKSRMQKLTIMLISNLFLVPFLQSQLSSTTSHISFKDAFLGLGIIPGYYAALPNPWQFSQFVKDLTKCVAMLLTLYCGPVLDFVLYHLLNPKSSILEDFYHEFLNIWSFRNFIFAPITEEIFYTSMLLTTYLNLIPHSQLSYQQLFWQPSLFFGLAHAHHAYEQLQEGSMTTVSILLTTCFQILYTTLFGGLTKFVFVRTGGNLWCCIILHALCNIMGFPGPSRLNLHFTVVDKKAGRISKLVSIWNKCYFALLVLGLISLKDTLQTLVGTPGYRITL
PABP polyA inh: blocks human PABP binding to poly(A) RNA. fluorescence polarization. inhibition, % at 35 µM. 290,000 compounds, 1% hits. AID 2014;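 active = 50% or more with normal probe brightness, or confirmed in later tests; about a fifth of its hits are not listed in these tables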;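 note: calls also rest on retests at 20 µM and on dose response follow-up; controls were probe without protein and protein plus probe with vehicle; some compounds called inactive have numbers as strong as hits; many hits fall short of the cut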
MT1-MMP act inh RFP: also measured in MT1-MMP act inh; calls as there; RFP signal change, %; measured here: RFP expression control read;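 0 = vehicle wells; hits needed this value within 50% of zero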
An asterisk follows results filed as active. Only part of the results is shown; the hit share may differ from the screen's.

`COc1cc2c(C(=O)N3CCCc4ccccc43)cn(C)c(=O)c2cc1OC` gave HIV Env fusion -8, UUG fidelity -11, CSC inhib -12, MT1-MMP act inh 1, eIF4H inh 0, Rce1 inh inactive, PABP polyA inh -5 and MT1-MMP act inh RFP 3.
For COc1ccccc1CC(NC(C)=O)C(=O)NC1CCN(C(=O)c2cccc(Cl)c2)CC1 (stereo not drawn) the results were HIV Env fusion -51, UUG fidelity -11, CSC inhib -15, MT1-MMP act inh 2, eIF4H inh -4, Rce1 inh inactive, PABP polyA inh -5 and MT1-MMP act inh RFP 0.
COc1cccc(NC(=S)N(CCCN2CCN(C)CC2)Cc2ccco2)c1 was read as HIV Env fusion -6, UUG fidelity -14, CSC inhib -17, MT1-MMP act inh 3, eIF4H inh -4, Rce1 inh inactive, PABP polyA inh -4 and MT1-MMP act inh RFP 2.
Screening Cc1ccccc1NC(=O)N1C2CCC1CC(O)(c1cccnc1)C2 (stereo not drawn) returned UUG fidelity -7, CSC inhib -2, MT1-MMP act inh -1, eIF4H inh -13, Rce1 inh inactive, PABP polyA inh 3 and MT1-MMP act inh RFP 3.
`COc1ccc2ccccc2c1/C=N/NC(=O)c1cccc(Br)c1` gave HIV Env fusion 9, CSC inhib -1, MT1-MMP act inh 2, eIF4H inh -3, Rce1 inh inactive, PABP polyA inh 1 and MT1-MMP act inh RFP 0.
Screening CCCCCOC(=O)C1=C(C)Nc2ncnn2C1c1cccs1 (stereo not drawn) returned HIV Env fusion 22, UUG fidelity 19, CSC inhib -14, MT1-MMP act inh 2, eIF4H inh -12, Rce1 inh inactive, PABP polyA inh -12 and MT1-MMP act inh RFP -11.
Cc1nn(-c2ccccc2)c(CC(C)(C)C(=O)O)c1C(=O)O was read as UUG fidelity -15, CSC inhib -2, MT1-MMP act inh 3, eIF4H inh 4, Rce1 inh inactive, PABP polyA inh 1 and MT1-MMP act inh RFP 2.
Screening COc1cc(C2N(c3ccc(Cl)c(Cl)c3)C(=O)C3CCCN32)cc(OC)c1OC (stereo not drawn) returned HIV Env fusion -25, UUG fidelity -13, CSC inhib -5, MT1-MMP act inh -1, eIF4H inh -1, Rce1 inh inactive, PABP polyA inh 6 and MT1-MMP act inh RFP -1.
Screening Cc1c(C)c(C)c(/C=[N+](/C)[O-])c(C)c1C returned HIV Env fusion -6, CSC inhib -10, MT1-MMP act inh 6, eIF4H inh 3, Rce1 inh inactive, PABP polyA inh 13 and MT1-MMP act inh RFP 4.
Screening CNn1cnc2ccsc2c1=O returned HIV Env fusion -5, CSC inhib -18, MT1-MMP act inh 2, eIF4H inh 8, Rce1 inh inactive, PABP polyA inh -2 and MT1-MMP act inh RFP 5.
For CN1CCc2c(sc(NC(=O)C3CCN(S(=O)(=O)c4cccs4)CC3)c2C(N)=O)C1 the results were HIV Env fusion -17, UUG fidelity 7, CSC inhib 17, MT1-MMP act inh 0, Rce1 inh inactive and MT1-MMP act inh RFP 9.
Screening C=CC[C@@H](CC(=O)N[C@@H](CO)Cc1ccccc1)C(=O)NC[C@@H](OC(=O)[C@@H](CC=C)Cc1ccc(F)cc1)c1ccccc1 returned HIV Env fusion 49, UUG fidelity -15, CSC inhib -11, MT1-MMP act inh -2 and MT1-MMP act inh RFP -13.
Screening C=C1CC[C@@H]2[C@](C)(CCC[C@@]2(C)/C=C/[C@@H](O)C(C)(C)O)[C@H]1CC(=O)NCCS(=O)(=O)O returned HIV Env fusion 6, UUG fidelity 49, MT1-MMP act inh -1 and MT1-MMP act inh RFP 1.
For C(=C\N1CCCCCC1)/c1nnnn1-c1ccc(-c2ccccc2)cc1 the results were HIV Env fusion 17, UUG fidelity -8, CSC inhib 12, MT1-MMP act inh 0, eIF4H inh 1, Rce1 inh inactive, PABP polyA inh -6 and MT1-MMP act inh RFP 5.
For OCCN1CCN(c2ncnc3c2sc2nc(N4CCOCC4)c4c(c23)CCC4)CC1 the results were UUG fidelity -9, CSC inhib 43, MT1-MMP act inh 4, eIF4H inh -16, Rce1 inh inactive, PABP polyA inh -8 and MT1-MMP act inh RFP -8.
For COc1ccc(S(=O)(=O)N(CC(=O)NCc2ccco2)C2CCCCC2)cc1OC the results were HIV Env fusion -1, UUG fidelity 0, CSC inhib -14, MT1-MMP act inh -3, eIF4H inh 6, Rce1 inh inactive, PABP polyA inh 11 and MT1-MMP act inh RFP -2.
For CC(C)c1ccc(/C=N/NC(=O)c2cc(-c3cccc([N+](=O)[O-])c3)n[nH]2)cc1 the results were HIV Env fusion 12, UUG fidelity -15, CSC inhib 62, MT1-MMP act inh 5, eIF4H inh 3, Rce1 inh inactive, PABP polyA inh -9 and MT1-MMP act inh RFP -4.
`CCOC(=O)c1c(NC(=O)CCC(=O)NCc2ccco2)sc2c1CCCC2` gave HIV Env fusion -13, UUG fidelity -37, CSC inhib 6, MT1-MMP act inh -1, eIF4H inh 0, Rce1 inh inactive, PABP polyA inh 9 and MT1-MMP act inh RFP -2.
`O=S(=O)(/N=C(/Nc1ccc(F)cc1F)c1ccc(Cl)cc1)c1ccccc1` gave UUG fidelity -9, CSC inhib -3, MT1-MMP act inh 3, eIF4H inh -9, Rce1 inh inactive, PABP polyA inh 1 and MT1-MMP act inh RFP 3.
COc1ccc(-n2c(SCC(=O)Nc3ccccc3)nc(O)cc2=O)cc1 was read as HIV Env fusion 16, UUG fidelity -20, CSC inhib -7, MT1-MMP act inh 8, eIF4H inh -5, Rce1 inh inactive, PABP polyA inh -5 and MT1-MMP act inh RFP 1.

Among those listed so far, 2 have fluorine.
Screening C=CC[C@@H](CC(=O)N[C@@H](CO)Cc1ccccc1)C(=O)NC[C@@H](OC(=O)[C@@H](CC=C)Cc1ccc(F)cc1)c1ccccc1 returned HIV Env fusion 49, UUG fidelity -15, CSC inhib -11, MT1-MMP act inh -2 and MT1-MMP act inh RFP -13.
`O=S(=O)(/N=C(/Nc1ccc(F)cc1F)c1ccc(Cl)cc1)c1ccccc1` gave UUG fidelity -9, CSC inhib -3, MT1-MMP act inh 3, eIF4H inh -9, Rce1 inh inactive, PABP polyA inh 1 and MT1-MMP act inh RFP 3.

Further structures.
For CC(C)Cc1ccc(C(C)C(N)=Nc2ccc(O)cc2)cc1 (stereo not drawn) the results were HIV Env fusion 30, UUG fidelity -4, CSC inhib 60, MT1-MMP act inh -1, Rce1 inh inactive and MT1-MMP act inh RFP 2.
COc1ccc(-c2csc(C(NC(C)=O)c3cccc(F)c3)n2)cn1 (stereo not drawn) was read as HIV Env fusion -2, UUG fidelity -9, MT1-MMP act inh 3 and MT1-MMP act inh RFP 2.
Cc1ccc(CNC(=O)CCCc2nc3ccccc3s2)cc1 was read as HIV Env fusion -3, CSC inhib -12, MT1-MMP act inh 0, eIF4H inh 0, Rce1 inh inactive, PABP polyA inh -2 and MT1-MMP act inh RFP 5.
For C/C(=N\NC(=O)c1ccc(Cl)cc1)c1ccc(Br)s1 the results were HIV Env fusion -8, UUG fidelity 9, CSC inhib 12, MT1-MMP act inh 7, eIF4H inh 4, Rce1 inh inactive, PABP polyA inh -4 and MT1-MMP act inh RFP 4.
`COc1ccc(N2CCN(C(=O)c3cn(CC4CCCCC4)nn3)CC2)cc1` gave HIV Env fusion -4, UUG fidelity -17, CSC inhib -4, MT1-MMP act inh 2, eIF4H inh 5, Rce1 inh inactive, PABP polyA inh 7 and MT1-MMP act inh RFP -3.
CC(C(=O)N1CCc2ccccc21)N1CCc2ccccc2C1 (stereo not drawn) was read as HIV Env fusion -26, UUG fidelity 9, CSC inhib 0, MT1-MMP act inh -17, eIF4H inh 4, Rce1 inh inactive, PABP polyA inh -5 and MT1-MMP act inh RFP 5.
`COc1ccc(/C=N/NC(=O)CCn2c3ccccc3c3ccccc32)cc1OC` gave HIV Env fusion 14, CSC inhib 7, MT1-MMP act inh -3, eIF4H inh 2, Rce1 inh inactive, PABP polyA inh -10 and MT1-MMP act inh RFP -5.
Screening O=C(NCc1ccco1)/C(=C/c1ccco1)NC(=O)c1ccco1 returned HIV Env fusion 11, CSC inhib -8, MT1-MMP act inh -1, eIF4H inh -7, Rce1 inh inactive, PABP polyA inh -21 and MT1-MMP act inh RFP 1.
O=C(CSC1=NC(=O)C(c2ccccc2)C(=O)N1)Nc1ccccc1[N+](=O)[O-] (stereo not drawn) was read as HIV Env fusion -21, UUG fidelity 2, CSC inhib -4, MT1-MMP act inh -1, eIF4H inh 13, Rce1 inh inactive, PABP polyA inh -11 and MT1-MMP act inh RFP -2.
COc1ccc(CN2CCC(C(=O)Nc3ccc(Oc4cccnc4)cc3)CC2)cc1 was read as UUG fidelity -20, CSC inhib 0, MT1-MMP act inh 0, eIF4H inh -14, Rce1 inh inactive, PABP polyA inh -7 and MT1-MMP act inh RFP -6.
Screening O=C(CSc1nnc(NC(=O)c2ccccc2F)s1)NCC1CCCO1 (stereo not drawn) returned HIV Env fusion -19, UUG fidelity -16, CSC inhib -4, MT1-MMP act inh 1, eIF4H inh 10, Rce1 inh inactive, PABP polyA inh 3 and MT1-MMP act inh RFP 3.
O=C(NN1CCOCC1)c1cc(Cl)ccc1Cl was read as HIV Env fusion -10, UUG fidelity -13, CSC inhib -4, MT1-MMP act inh -3, eIF4H inh -5, Rce1 inh inactive, PABP polyA inh 0 and MT1-MMP act inh RFP 1.
Cc1ccccc1C(=O)NC1CCN(CC(=O)Nc2ccccc2Cl)CC1 was read as HIV Env fusion 7, UUG fidelity 1, CSC inhib -6, MT1-MMP act inh 0, eIF4H inh -6, Rce1 inh inactive, PABP polyA inh 5 and MT1-MMP act inh RFP -4.
`Cc1ccc(S(=O)(=O)N2CCOCC2)cc1NC(=O)CNc1ccccc1N1CCCC1=O` gave HIV Env fusion 7, UUG fidelity 9, MT1-MMP act inh -2 and MT1-MMP act inh RFP 4.
Screening Clc1ccc2nc(CSCc3ccccc3)cn2c1 returned HIV Env fusion -128, CSC inhib -7, MT1-MMP act inh 3, eIF4H inh -1, Rce1 inh inactive, PABP polyA inh 2 and MT1-MMP act inh RFP 5.
Cc1ccc(C(=O)CCNc2ccccc2)o1 was read as UUG fidelity 6, CSC inhib 21, MT1-MMP act inh 2, eIF4H inh -16, Rce1 inh inactive, PABP polyA inh -6 and MT1-MMP act inh RFP -2.
`O=C(CSc1nnc(CNC(=O)c2ccco2)o1)Nc1nc2ccccc2s1` gave HIV Env fusion -1, CSC inhib 1, MT1-MMP act inh 2, eIF4H inh 6, Rce1 inh inactive, PABP polyA inh 0 and MT1-MMP act inh RFP 1.
Screening Cc1ccc(Nc2ncnc3c2cnn3C)c(C)c1 returned HIV Env fusion 5, UUG fidelity -9, CSC inhib -10, MT1-MMP act inh -2, eIF4H inh -9, Rce1 inh inactive, PABP polyA inh -6 and MT1-MMP act inh RFP 1.
Cc1cc2cc(CNC(=O)c3cc4ccccc4o3)ccc2n1C was read as CSC inhib -2, eIF4H inh 21, Rce1 inh inactive and PABP polyA inh 37.
For OCCC1CN(Cc2nc3ccccc3[nH]2)CCN1C1CCCC1 (stereo not drawn) the results were HIV Env fusion -9, UUG fidelity 0, CSC inhib -6, MT1-MMP act inh 2, eIF4H inh 9, Rce1 inh inactive, PABP polyA inh -10 and MT1-MMP act inh RFP 3.
N#Cc1cn(CC(=O)NCC2CCCO2)c2ccccc12 (stereo not drawn) was read as CSC inhib -10, MT1-MMP act inh -1, eIF4H inh -2, Rce1 inh inactive, PABP polyA inh 3 and MT1-MMP act inh RFP 4.
`CN(C(=O)C1CCOC1)c1nnc(-c2ccncc2)s1` (stereo not drawn) gave UUG fidelity -24, CSC inhib 10, MT1-MMP act inh 2, eIF4H inh -11, Rce1 inh inactive, PABP polyA inh 2 and MT1-MMP act inh RFP -1.
O=C(NCCN1CCOCC1)c1ccc(Cl)c([N+](=O)[O-])c1 was read as HIV Env fusion -13, UUG fidelity -1, CSC inhib -13, MT1-MMP act inh 2, eIF4H inh 4, Rce1 inh inactive, PABP polyA inh -3 and MT1-MMP act inh RFP 4.

Screening results: PubChem, several laboratories
